NPYLR7 ag = mosquito NPYLR7 agonism; AID 1259423; hit rate 0.15% among 270,000; activation, % at 10 µM; HEK293T NPYLR7/Galpha15, GCaMP6s calcium fluorescence; in the data active = activation above about 40%;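 note: 0% = vehicle and 100% = reference agonist at the receptor; some compounds past the cut are filed as inactive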
NPYLR7 ag max-min = further read-out of NPYLR7 ag, marked with its call; activation, %; measured here: Max-Min RFU normalised activation; some inactives read as strong as hits;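 span of the calcium signal over five minutes; 0% = vehicle and 100% = native peptide agonist; compound fluorescence can raise it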
Numbers without * were called inactive; & = joins results of further samples. A portion of the library. The share of hits here may be higher or lower than overall.

SMILES	NPYLR7 ag max-min	NPYLR7 ag
Cc1cc(C)c[n+](C(C)C(=O)c2ccc(-c3ccccc3)cc2)c1 (configuration not stated)	-23.6	-16.3
O=c1oc2ccccc2n1CCCN1CCCC1c1ccc(O)cc1 (configuration not stated)	-1.2	1.5
Cc1ccccc1C(=O)N1CCN(c2ccc(Cl)cc2Cl)C(=O)C1C (configuration not stated)	-0.8	-4.8
COC(=O)[C@@H]1C(C(=O)NC2CCCc3c2[nH]c2ccc(C)cc32)[C@@H]2C=C[C@H]1C2 (some centres not stated)	4.1	3.3
Cc1ccc(C)c(CN2CCN(c3nc4c(c(=O)[nH]c(=O)n4C)n3Cc3ccc(Cl)cc3)CC2)c1	-1.5	3.0
Oc1c(Cl)cc(Cl)c2ccc(N/N=C\c3cccc(C(F)(F)F)c3)nc12	-7.7	-5.2
CC(=O)Nc1cccc(C(=O)NCCc2ccc(Cl)cc2)n1	2.8	3.9
Cc1nc2c(c(N(C)CCCc3cnn(C)c3)n1)CNC2	5.0	4.6
Cc1c(C(=O)N2CCCC(CN3CCCC3=O)C2)oc2c(F)cccc12 (configuration not stated)	1.3	4.4
CS(=O)(=O)c1ccc(C(=O)Nc2ccc3c(c2)OCCO3)cc1	-13.1	-12.3
COc1cc(C(=O)N2CCCN(c3c(-c4ccc(OC)c(OC)c4)cnc4ncnn34)CC2)cc(Cl)n1	-5.1	-1.9
CC(C)Oc1ccc(Br)cc1C=Nn1nnnc1N	1.7	0.1
CCCc1nc(N2CCCN(C(=O)CSc3ccccc3)CC2)c2c(-c3ccccc3)noc2n1	6.3	16.3
CC(=O)Nc1ccc(NC(=O)c2ccc3nc(C)c(N(C)C(=O)CCc4ccccc4)n3c2)cc1	19.3	21.3
Nc1cc(N2CCC(CO)(CCCc3ccccc3)CC2)ncn1	-8.1	-8.2
Cc1noc(-c2ccccc2OC23CCCN(CC2)C3)n1 (configuration not stated)	22.6	29.8
Fc1cccc(CN2CCN(c3nc4nonc4nc3N3CCSCC3)CC2)c1	4.3	4.2
C=CCN=c1scc(-c2ccc(F)cc2)n1N=Cc1ccc2c(c1)OCCO2	-4.8	-4.0
CCNC(=O)Nc1ccc(N(C)C)c(CN(CCOC)C(=O)C(C)(C)C)c1	8.3	-2.8
CCC(NC(=O)c1ccccc1)c1nc(C)cs1 (configuration not stated)	0.4	7.6
Fc1c(F)c(F)c(C=CCN2CCOCC2)c(F)c1F	-1.9	-0.3
CNC(=O)c1nnc2n1C(c1ccccc1)CN(C(=O)c1cccc(OC(F)(F)F)c1)C2 (configuration not stated)	4.6	10.2
Cc1cccc(Cn2c(SCCc3ccccc3)nc3c2c(=O)[nH]c(=O)n3C)c1	0.0	0.2
OC(c1ccc(CN2CCCCC2)cc1)c1ncc(-c2ccccc2)[nH]1 (configuration not stated)	-2.0	1.7
Cc1ccc(S(=O)(=O)N(C)CCCC(=O)O)c(C)c1N(C)S(C)(=O)=O	11.5	22.1
CC1=C(CC(=O)N2CCCC2c2ccncc2)c2cc(F)ccc2/C1=C\c1ccc(S(C)=O)cc1 (configuration not stated)	-12.9	-7.5
COCc1nc2ccccc2n1CCCCOc1cccc(C)c1	11.5	1.3
OC1CCCN(c2cncc(OCC(F)(F)C(F)F)n2)C1 (configuration not stated)	-9.5	-9.2
CC(CCc1ccco1)n1cnc(-c2ccccc2)c1C1CC1 (configuration not stated)	-9.7	-7.1
O=C(C1C[C@H]1c1ccccc1)N1CCN(c2nccc(-c3cccc(C(F)(F)F)c3)n2)CC1 (some centres not stated)	31.8	24.8
Cc1cccc(N2C(=O)C(c3c(C)[nH]n(-c4ccccc4)c3=O)=C([n+]3cccc(C)c3)C2=O)c1	0.8	4.5
S=c1[nH]nc(-c2ccncc2)o1	1.9	5.3
COc1ccc(-c2nnc(NC(=O)c3ccc(C(=O)c4ccccc4)cc3)s2)c(OC)c1	-10.3	-3.7
O=C(CCc1n[nH]c(=O)[nH]c1=O)N/N=C\c1ccc(F)cc1	2.1	7.6
CC(C)NC(=O)[C@@H]1C[C@H](N)CN1C(=O)c1cccc2cnccc12	-5.7	-5.8
CCOCCn1c(=NC(=O)c2cc(Cl)sc2Cl)sc2cc(S(N)(=O)=O)ccc21	0.1	1.5
O=C(NC1CC(=O)N(c2ccccc2)C1)NN1CCOCC1 (configuration not stated)	7.6	6.9
C=CCSc1nc2sc(C(=O)O)c(C)c2c(=O)[nH]1	9.0	9.9
Nc1[nH]n(-c2ccccc2)c(=O)c1N=Nc1cc([N+](=O)[O-])ccc1Br	2.3	7.3
COc1ccc(CN2CCn3nc(C(=O)NCc4ccccn4)cc3C2=O)cc1	13.8	21.7
O=C(NCc1ccc(F)cc1)c1ccc(CSc2nnc(-c3ccncc3)n2Cc2ccccc2)cc1	23.5	8.6
CCCN(CCC)C(=O)c1cc(-c2ccc(C)cc2)nc2cc(C(C)(C)C)nn12	11.3&13.4	11.7&19.1
CCCNC(=O)C1(C)CCCN(Cc2ccc(Cl)cc2)C1 (configuration not stated)	-3.6	2.8
O=C(CCc1ccccc1)N(Cc1nccn1Cc1ccccc1Cl)CC1CC1	25.6	20.1
CCOC(=O)C(CC#CCN1CCCC1)C(=O)OCC	9.2	14.5
Cc1ccccc1CS(=O)(=O)NC(C(C)C)C(C)C	0.0	1.1
CC(C)c1noc(-c2ccnc(NC3CCN(CC(N)=O)CC3)c2)n1	-2.6	0.7
Cc1nn(-c2ccccn2)c2c1-c1oncc1CC2	-5.1	-4.0
Cc1ccc(C)c(S(=O)(=O)NCCn2nc(-c3ccc(Cl)cc3)ccc2=O)c1	5.3	7.4
Cc1ccc(NC(=O)NC(=O)COc2ccc(C#N)cc2)cc1C	7.5	9.2
S=c1[nH]nc(-c2ccc(Cl)cc2)o1	2.9	7.5
NC1=NC(=O)/C(=C\c2ccc(-c3cccc([N+](=O)[O-])c3)o2)S1	-9.5	-10.5
Cc1ccc(C(=O)N=Nc2c(O)[nH]c3ccccc23)cc1	-9.8	-4.5
CCOC(=O)C1CCCN(C(=O)c2csc(CSc3nnc(-c4ccco4)n3-c3ccccc3OC)n2)C1 (configuration not stated)	5.7	-4.1
CCOc1ccc(N2C(=O)CSC2c2ccc(NC(=O)COC)cc2)cc1 (configuration not stated)	28.9	28.3
Cc1c(S(=O)(=O)N2CCNC(C(=O)O)C2)sc2ccc(Cl)cc12 (configuration not stated)	-5.1	-2.9

Continuation:
SMILES	NPYLR7 ag max-min	NPYLR7 ag
CCOc1ccccc1N1CCN(C(=O)c2cc(-c3cccc(OC)c3)n3nc(C(C)(C)C)cc3n2)CC1	4.6	7.8
CSC(CO)C(C)Nc1cnc2ccccc2n1 (configuration not stated)	4.9	0.0
O=C(Cn1nc(-c2ccc(F)cc2)oc1=O)Nc1ccc(Cl)cc1F	-0.4	-0.1
COC(=O)N(C)Cc1cccc(N2CCN(Cc3c(Cl)ccc(Cl)c3Cl)CC2)c1	8.8	-2.8
Cc1ccccc1C(=O)N(CC(N)=O)C1CCCC1	3.9	6.6
O=C(c1ccccc1Cl)N1CCN(c2nc(-c3ccccc3)c3cc(Cl)ccc3n2)CC1	-7.9	-3.0
CCn1nc(C)cc1C(=O)N(CCN1CCOCC1)c1nc2c(F)cc(F)cc2s1	13.6	5.4
Cc1nnc(SCC(=O)N2CCc3c([nH]c4ccccc34)C2C2CCCCC2)s1 (configuration not stated)	17.3	17.7
COC(=O)c1ccc(-c2noc(CN3CCC(c4ccc(F)cc4)C3)n2)cc1 (configuration not stated)	8.8	17.1
CC(C)S(=O)(=O)NC(=O)Cc1cn(C)c2ccccc12	7.9	16.0
CCOC(=O)c1ccc(N2CC(C)Cn3c2nc2c3c(=O)[nH]c(=O)n2C)cc1 (configuration not stated)	28.0	0.4
CS(=O)(=O)CCCNC(=O)c1cc2cc(Br)cc(Br)c2o1	4.2	-0.1
COc1cc(OC)cc(C(=O)NCC(=O)Nc2ccc(N3CCN(C)CC3)nc2)c1	2.9	6.7
C=CCC1(O)CC(c2ccccc2)NC(c2ccccc2)C1CC (configuration not stated)	-26.1	-17.8
Cc1nn(Cc2ccc(F)cc2)c(=O)c2c1cnn2-c1ccccc1	3.2	6.1
CCOC(=O)c1cc(-c2cccc(NC(=O)Cc3cccc(OC)c3)c2)n(-c2ccccc2C)n1	14.9	28.5
CCN(C/C=C/c1ccccc1)C(=O)c1cccc(Oc2ncccn2)c1	0.6	10.4
O=C1C2CC=CCC2C(=O)N1c1ccc(F)c([N+](=O)[O-])c1 (configuration not stated)	-12.8	-10.7
CCc1nc2ccc(C(=O)N3CCN(c4ccccc4)CC3)cn2c1N(C)Cc1cccs1	1.0	13.4
CCCC(=O)OCC(O)CNC(c1nc(-c2ccc(C)c(Cl)c2)no1)C(C)C (configuration not stated)	18.4	18.1
CCCc1cc(=O)[nH]c(SCCSC)n1	-4.3	-5.3
Cc1cc(C(=O)CSc2nnc3n2CCCCC3)c(C)s1	12.4	-0.9
O=C(CSCc1ccccc1Cl)NC1C=CS(=O)(=O)C1 (configuration not stated)	-0.3	3.7
COC(=O)C1C2C=CC(C3CC23)C1C(=O)OCC(=O)c1ccc(OC)cc1 (configuration not stated)	-5.6	-5.7

Among those listed so far, three have bromine.
SMILES	NPYLR7 ag max-min	NPYLR7 ag
CC(C)Oc1ccc(Br)cc1C=Nn1nnnc1N	1.7	0.1
Nc1[nH]n(-c2ccccc2)c(=O)c1N=Nc1cc([N+](=O)[O-])ccc1Br	2.3	7.3
CS(=O)(=O)CCCNC(=O)c1cc2cc(Br)cc(Br)c2o1	4.2	-0.1

(cont.)
SMILES	NPYLR7 ag max-min	NPYLR7 ag
CCC(CCC(C)C1CCC2C3CC=C4C[C@@H](OC(C)=O)CC[C@]4(C)C3CC[C@]12C)C(C)C (some centres not stated)	-17.0	-9.2
Cc1cc(C)n(-c2nc3sc4c(c3c3n[nH]c(=S)n23)CC(C)(C)OC4)n1	-3.2	0.6
CN(C)c1ccc(NC2CC(=O)N(C3CCCCC3)C2=O)cc1 (configuration not stated)	4.3	-1.9
CC(C)[C@H]1CC[C@H](C)C[C@@H]1OCC(=O)NCCCn1c(=O)[nH]c2ccccc21	-10.2	-5.0
CC1CC(=O)Nc2ccccc2N1C(=O)CN1CCCc2ccccc21 (configuration not stated)	-1.0	2.3
COc1ccc(NC(=O)C2CCN(C(=O)[C@@H](Cc3ccccc3)NC(=O)Nc3cc(Cl)ccc3OC)CC2)cc1	35.0	25.2
O=c1[nH]cnc2ccc(Br)cc12	0.8	2.2
O=C(CNC(=O)c1ccco1)N=Nc1c(O)[nH]c2ccc([N+](=O)[O-])cc12	-14.9	-9.8
COc1ccccc1C(=O)Nc1cccc(N2CCC(NC(C)c3cnn(-c4ccccc4)c3)CC2)c1 (configuration not stated)	13.8	25.8
Cc1ccc(C)c(OC2=NS(=O)(=O)c3ccccc32)c1	-2.7	-1.2
COc1cc(/C=C2\Oc3c4c(cc(C)c3C2=O)OCN(C2CC2)C4)cc(OC)c1OC	-9.3	-5.0
CN(c1ccccc1)N1C(=O)c2ccccc2NC12CCN(C(=O)CC1NC(=O)NC1=O)CC2 (configuration not stated)	19.8	0.3
COCCN(CC1CCCO1)C(=O)c1sc2ncn(C)c(=O)c2c1C (configuration not stated)	-3.3	-3.0
COc1ccc(NC(=O)CNC(=O)C2CC2(c2ccccc2)c2ccccc2)cn1 (configuration not stated)	0.8	1.6
C(=N/Nc1nc(N2CCOCC2)nc(N2CCOCC2)n1)/c1ccco1	-12.7	-0.5
COc1c(C(=O)N2CCC(C(N)=O)C2)sc(C)c1Br (configuration not stated)	0.0	1.9
O=C(NC1CCOc2c(Cl)cccc21)C1CCN(Cc2ccccc2)CC1 (configuration not stated)	6.1	9.0
CN(C)CC(Cc1ccccc1)OCc1ccccc1 (configuration not stated)	9.7	5.5
COCCOCC(=O)N1CCN(c2nccc(-c3cccc(C(F)(F)F)c3)n2)CC1	-1.8	3.9
CCC1CCCCN1Cc1nc2cc(F)ccc2n1CC (configuration not stated)	13.1	-1.7
CC(Oc1ccc(F)c(F)c1)C(=O)N(CC(N)=O)Cc1ccccc1 (configuration not stated)	-1.6	2.2
Cc1noc(C(C)N(C)CC(=O)NCCc2ccc(Cl)cc2)n1 (configuration not stated)	12.4	14.1
CC(C)c1nc(Cn2ccnc2-c2cccc3cnccc23)cs1	2.0	3.6
CC(C)c1ccc(S(=O)(=O)NCC2CCCO2)cc1 (configuration not stated)	-10.0	-6.9

Exported with each value named: entries from further up.
compound: Cc1noc(C(C)N(C)CC(=O)NCCc2ccc(Cl)cc2)n1 (configuration not stated)
- NPYLR7 ag max-min: 12.4
- NPYLR7 ag: 14.1

compound: CC(C)c1nc(Cn2ccnc2-c2cccc3cnccc23)cs1
- NPYLR7 ag max-min: 2.0
- NPYLR7 ag: 3.6

(listing goes on)
SMILES	NPYLR7 ag max-min	NPYLR7 ag
COCC1(C(=O)NC(C)c2cnn(-c3ccccc3F)c2)CCC1 (configuration not stated)	3.6	11.6
Cc1ccc(C)n1-c1nc(CC(=O)NCc2ccc3c(c2)CCCN3C)cs1	-2.8	0.5
COCCCN(CC(=O)N(CCc1c[nH]c2ccccc12)Cc1ccc(F)cc1)C(=O)c1cc(OC)cc(OC)c1	26.6	18.2
c1cncc(COC2CCCN(Cc3cccc(Cn4cccn4)c3)C2)c1 (configuration not stated)	-8.5	1.4
O=C(NCc1nnc(SCC(=O)N2CCCc3ccccc32)n1-c1ccccc1)c1cc(Br)ccc1Cl	5.7	-2.8
COc1cc(-c2nccn2CCc2cccs2)cc2c1OCO2	0.9	-3.9
CCN(c1cccnc1)S(=O)(=O)c1cc(Cl)sc1Cl	-3.3	-0.7
O=C(O)CSc1nnc(-c2ccn[nH]2)n1-c1ccccc1Cl	-1.2	-0.7
O=C1CC(Nc2ccc(N3CCCCC3)cc2)C(=O)N1Cc1ccccc1 (configuration not stated)	1.3	2.4
